Cruzain Triton: qHTS Assay for Promiscuous and Specific Inhibitors of Cruzain (with detergent) | AID 1478, 2009 | hit rate 0.43% among 200,000 | purified cruzain, Z-FR-AMC fluorescence, 0.01% Triton | Cruzipain (Trypanosoma cruzi), P25779 | Potency, µM, without a hit: max response, negative = inhibition, most hits filed as inhibitors; active means well fitted curve in the direction sought with a large enough effect; inconclusive means small, poorly fitted or top-dose-only effect, or another doubt; inactive means no such curve, though single readings can be large; an effect the other way counts as inactive or inconclusive;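 further: plate controls were neutral wells for no effect and buffer without enzyme for full effect; nearly all actives have a fitted effect of over 40% in size; top concentration of the series not given in the record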
Target sequence (P25779 123-467 limits assumed): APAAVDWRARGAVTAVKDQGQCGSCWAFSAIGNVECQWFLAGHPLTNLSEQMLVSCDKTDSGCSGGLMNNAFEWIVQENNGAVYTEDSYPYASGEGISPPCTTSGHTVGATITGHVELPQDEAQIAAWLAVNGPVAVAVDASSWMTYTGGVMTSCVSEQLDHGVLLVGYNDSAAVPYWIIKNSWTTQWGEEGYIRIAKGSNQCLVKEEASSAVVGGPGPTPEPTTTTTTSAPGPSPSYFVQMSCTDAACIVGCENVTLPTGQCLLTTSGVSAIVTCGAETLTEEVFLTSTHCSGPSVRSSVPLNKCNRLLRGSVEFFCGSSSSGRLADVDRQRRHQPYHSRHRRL
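Compounds were screened in titration against cruzain (1.5 nM) with 0.01% Triton X-100 to counter colloidal aggregation. Activity was the AMC fluorescence increase over 60 s after adding 2 uM Z-FR-AMC at pH 5.5.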
LASV entry inh: qHTS for Inhibitors of binding or entry into cells for Lassa Virus | Lassa virus pseudotype entry inhibition, cell reporter; control for the full effect not named in the record | Potency, µM (series often up to 37.9 µM), inactives show top-dose activity change, negative = inhibition, usual class: inhibitors | hit rate 1.2% among 300,000 | AID 540256, 2011; active means well fitted inhibition curve with a large enough effect; inconclusive means small, poorly fitted or top-dose-only effect, or effect the other way; inactive means flat fitted curve, though single readings scatter; tested in HEK293 cells; further: on the % scale 0 is the no-effect control and ±100 the full control effect; nearly all actives have a fitted effect of over 50% in size; luciferase read-out
RE007 growth inh: qHTS Assay for Inhibitors of the HIV-1 protein Vpr | S. pombe RE007 Vpr strain, BacTiter-Glo ATP luminescence, 24 h; control for the full effect not named in the record | Potency, µM (top dose mostly 92.2 µM), for the others: at the highest dose activity change, negative = less growth | hit rate 0.21% among 360,000; active = well fitted falling curve with a large enough effect; inconclusive = small, poorly fitted or top-dose-only effect; inactive = no such curve, though single readings can be large or run the other way;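 further: on the % scale 0 is the no-effect control and ±100 the full control effect; nearly all actives have a fitted effect of over 50% in size; the assay follows cell death caused by Vpr and the record does not say whether a fall means rescue or toxicity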
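Fission yeast RE007 carrying one integrated HIV-1 vpr copy, seeded at OD 0.01 in PMG+AL medium with 23 nL pinned compound. Grown 24 h at 30 degrees; viability read by BacTiter-Glo luminescence after 5 min.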
Cruzain inh noDet: qHTS Assay for Promiscuous and Specific Inhibitors of Cruzain (without detergent); hit rate 2.3% among 200,000; Potency, µM, for inactives: max response, negative = inhibition, actives largely listed as inhibitors; AID 1476, 2009; Cruzipain (Trypanosoma cruzi), P25779; purified cruzain, Z-FR-AMC fluorescence, no detergent; active means well fitted curve in the direction sought with a large enough effect; inconclusive means small, poorly fitted or top-dose-only effect, or another doubt; inactive means no such curve, though single readings can be large; an effect the other way counts as inactive or inconclusive;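 further: plate controls were enzyme without inhibitor for no effect and buffer without enzyme for full effect; nearly all actives have a fitted effect of over 40% in size; top concentration of the series not given in the record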
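Purified cruzain at 1.5 nM, pre-incubated 15 min with compound at room temperature in 100 mM sodium acetate pH 5.5, 5 mM DTT, 0.00005% Triton X-100. Reaction started with 2 uM Z-FR-AMC; AMC fluorescence increase over 60 s gives rate.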
SARS PLP yeast: qHTS of Yeast-based Assay for SARS-CoV PLP; S. cerevisiae expressing SARS-CoV PLpro, growth rescue; control for the full effect not named in the record; Potency, µM (highest dose often 32.9 µM), without a hit: at the top dose activity, positive = growth rescue; hit rate 0.19% among 330,000; AID 485353, 2010; further: 0% is about no effect; nearly all actives have a fitted effect of over 55% in size; growth read by luminescence after 48 h
Marburg entry inh: qHTS for inhibitors of binding or entry into cells for Marburg Virus; AID 540276, 2011; Potency, µM (titrated, usually from 37.8 µM), without a hit: at the top dose activity change, negative = inhibition, usual class: inhibitors; hit rate 1.8% among 300,000; Marburg virus pseudotyped entry inhibition, cell reporter; control for the full effect not named in the record; about a third of the inactives were read at about 46 µM; active = well fitted inhibition curve with a large enough effect; inconclusive = small, poorly fitted or top-dose-only effect, or effect the other way; inactive = flat fitted curve, though single readings scatter; tested in HEK293 cells; about a fifth of its hits are not listed in these tables; further: on the % scale 0 is the no-effect control and ±100 the full control effect; luciferase read-out
2A StopGo: High Throughput Screening for Foot and Mouth Disease Virus Antivirals. hit rate 1.2% among 410,000. AID 1159524, 2015. Potency, µM (titrated, usually from 57.9 µM), inactives show top-dose signal change, negative = less light. human cells with a luciferase reporter of 2A StopGo recoding; control for the full effect not named in the record; active = well fitted falling curve with a large enough effect; inconclusive = small, poorly fitted or top-dose-only effect; inactive = no such curve, though single readings can be large or run the other way; tested in HEK293T cells; further: on the % scale 0 is the no-effect control and ±100 the full control effect; nearly all actives have a fitted effect of over 45% in size; luciferase light after 4 h
NS1 inh: qHTS Assay for Inhibitors of Influenza NS1 Protein Function | hit rate 0.4% among 270,000 | Potency, µM (titrated, usually from 46.1 µM), for the others: at the highest dose activity, positive = more growth | S. cerevisiae slowed by influenza A NS1, growth recovery by OD600; further: actives are rising curves; nearly all actives have a fitted effect of over 50% in size
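Read-out: OD600 growth recovery of NS1-expressing budding yeast. Cells grown overnight at 30C in -URA glucose medium, washed, resuspended and diluted 1:100 in 2% galactose assay medium, pH 6.0. Same strain lacking NS1 served as positive control.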
* marks the source's active call; other numbers are inactive results; ? = inconclusive; / = not tested or not shown; & = joins results of further samples; [ ] = dose if it differs, or a comment. Unless noted, the call rests on the fitted dose curve; in most records, active means well fitted rising curve with a large enough effect; inconclusive means small, poorly fitted or top-dose-only effect; inactive means no such curve, though single readings can be large or run the other way. Potency means the concentration at half of the fitted maximal effect.

The opening four records, ahead of the listing:
SMILES | Cruzain Triton | LASV entry inh | RE007 growth inh | Cruzain inh noDet | SARS PLP yeast | Marburg entry inh | 2A StopGo | NS1 inh
CCOC(=O)C1CCCN(CCC(=O)Nc2ccc(Br)c(C)c2)C1 (stereo not given) | / | / | -11% | / | -12% | / | -4% | 12%
Cc1ccc(C(=O)c2ccccc2C(=O)O)s1 | -6.4% | -9% | -8% | -1% | -1% | -12%[46.1 µM] | -1% | -2%
O=C(CSc1nnnn1-c1cccc(O)c1)NC1CC1 | / | / | 10% | / | -1% | / | 6% | 4%
COC(=O)c1ccc(CNC(=O)c2ccc3c(c2)OCCO3)cc1 | / | ? | 77% | / | -8% | 15%[46.1 µM] | 29% | 13%

All compounds of this part (from the top)
SMILES | Cruzain Triton | LASV entry inh | RE007 growth inh | Cruzain inh noDet | SARS PLP yeast | Marburg entry inh | 2A StopGo | NS1 inh
CCOC(=O)C1CCCN(CCC(=O)Nc2ccc(Br)c(C)c2)C1 (stereo not given) | / | / | -11% | / | -12% | / | -4% | 12%
Cc1ccc(C(=O)c2ccccc2C(=O)O)s1 | -6.4% | -9% | -8% | -1% | -1% | -12%[46.1 µM] | -1% | -2%
O=C(CSc1nnnn1-c1cccc(O)c1)NC1CC1 | / | / | 10% | / | -1% | / | 6% | 4%
COC(=O)c1ccc(CNC(=O)c2ccc3c(c2)OCCO3)cc1 | / | ? | 77% | / | -8% | 15%[46.1 µM] | 29% | 13%
COC(=O)c1ccc(OCCCCN(C)Cc2ccccc2)cc1 | / | / | -23% | / | 0% | / | 2% | -2%
O=S(=O)(c1ccc(S(=O)(=O)N(Cc2ccco2)Cc2ccccc2Cl)cc1)N1CCCC1 | 2.8% | -3% | 1% | ? | -2% | -11%&-11% | -13% | 9%
O=C1C=C(NCCc2ccccc2)C2(CCCCC2)O1 | / | -21% | -9% | / | 0% | -3%[14.2 µM] | -10% | -1%
CN1CCc2nc(NC(=O)c3cccc(S(=O)(=O)N4CCc5ccccc54)c3)sc2C1 | -4.9% | 1% | -4% | 16µM* | -3% | ? | 2% | ?
COc1ccc(NC(=O)/C(=C\c2ccc(OS(=O)(=O)c3ccc(C)cc3)cc2)NC(=O)c2ccccc2)cc1 | 2.6% | -6% | -20% | 7.9µM* | 0% | 1% | -7% | 29%
Cc1cc(=O)[nH]c2c1c(C)nn2C1CCCC1 | 0.6% | 0% | 2% | 3% | -11% | 0% | -4% | 6%
Cn1cnnc1SCc1ccc(F)c2ccccc12 | 1.5% | -11% | 0% | -1% | -11% | -1% | -4% | -4%
CC1CC1C(=O)OCC(=O)NCc1ccc(Cl)cc1Cl (stereo not given) | 4.2% | 18% | 2% | 4% | -3% | ? | 20% | -7%
CCOC(=O)CC(=O)CSc1nc2c(sc(=S)n2-c2ccc(C)c(C)c2)c(=O)[nH]1 | / | ? | 3% | / | -1% | ? | -22% | 9%
COC(=O)[C@H]1C[C@@H]1[C@H](NC(=O)c1cc(C)on1)c1ccccc1 | -1.4%&-1.2% | 0% | -15% | -7%&-5% | 1% | 0% | -21% | -21%
CC(=O)NC1C(=O)N=C(SCC(=O)Nc2sc3c(c2C#N)CCCCCC3)NC1=O (stereo not given) | / | 16% | 1% | / | -1% | 9% | -3% | /
COc1ccc(C)cc1NC(=O)C1CCN(C(=O)Cc2ccccc2)CC1 | / | -28% | -1% | / | 1% | -8%[46.1 µM] | 4% | /
COc1ccccc1C(=O)N/N=C1/NC(=O)CC(C(=O)Nc2ccccc2)S1 (stereo not given) | / | 20% | 0% | / | -1% | -18% | 1% | -3%
CSc1ncccc1C(=O)OCC(=O)N(C)C | / | 1% | 5% | / | 6% | ? | 3% | /
Cc1occc1-c1nnc(SCC(N)=O)o1 | / | 11%[46.1 µM] | -21% | / | 0% | -3%[46.1 µM] | 4% | -5%
CCN(CC)C(=O)Oc1ccc2oc(=O)cc(-c3cc4cccc(OC)c4o3)c2c1 | / | ? | 12% | / | 19% | ? | -30% | -4%
CN1CCN(C(=O)c2cc(Cl)cc(Cl)c2)CC1 | / | 12%[46.1 µM] | 11% | / | -1% | 18%[46.1 µM] | -5% | 1%
CC(C)CN(C(=O)CSc1nnnn1-c1ccccc1)c1c(N)n(CC(C)C)c(=O)[nH]c1=O | / | -5%[46.1 µM] | -12% | / | 2% | -8%[46.1 µM] | 1% | 4%
CC(C)(CNC(=O)c1ccc(S(=O)(=O)Nc2ccccc2F)cc1)N1CCOCC1 | / | -27% | 13% | / | 1% | -27% | -9% | /
COc1cc(C2c3c(-c4c(C)cc(C)cc4O)n[nH]c3C(=O)N2Cc2ccco2)cc(OC)c1OC (stereo not given) | -1.5% | ? | / | 17% | / | 0%[46.1 µM] | -10% | /
O=C(Nc1ccccc1)c1ccc[n+](Cc2ccc([N+](=O)[O-])cc2)c1 | -3.0% | 1% | 1% | -9% | -12% | ? | -14% | 6%
O=C(CS(=O)(=O)Cc1ccccc1)Nc1nnc(C2CCCCC2)s1 | -6.0% | -29% | 18% | 27% | -4% | -5% | -17% | -9%
CN(Cc1ccccc1)C(=O)C1CCN(S(=O)(=O)c2cccc3nonc23)CC1 | / | ? | -8% | / | -4% | -1%[46.1 µM] | 1% | 1%
O=C(COc1ccccc1)NCc1ccccc1 | 1.3% | 15% | -9% | 13% | -4% | 1% | / | 22%
COCc1cc(=O)[nH]c2cc(NC(=O)C(F)(F)F)c(C)cc12 | 2.4% | -18% | -1% | 2% | -2% | 23% | -2% | 20%
O=C(CCNS(=O)(=O)c1ccc2c(c1)CCCC(=O)N2)Nc1cccc(Cl)c1 | -2.2% | 3%[46.1 µM] | / | -6% | / | / | -8% | /
O=C(c1ccccn1)N1CCCC(N2CCN(c3ccccc3)CC2)C1 (stereo not given) | / | / | 5% | / | -2% | / | -3% | 9%
CC(C)CCOP(=O)(c1ccc(N(C)C)cc1)C(O)c1ccccn1 (stereo not given) | -2.7% | 26% | 15% | -11% | -1% | -13% | 33%[activator] | -8%
NS(=O)(=O)c1cccc(NC(=O)CSc2nc3nc(-c4cccs4)cc(C(F)(F)F)c3c(=O)[nH]2)c1 | / | / | -3% | / | 0% | -1% | -3% | 2%
CC1=C(C(=O)Nc2ccccc2)C(c2cc(Br)ccc2F)n2ncc(C(=O)Nc3ccccc3)c2N1 (stereo not given) | -4.4% | -17%[46.1 µM] | / | 20µM* | / | / | -23% | /
Nc1ncnc2c1ncn2[C@@H]1O[C@H](COP(=O)(O)CP(=O)(O)OP(=O)(O)O)[C@H](O)[C@H]1O | 4.1% | / | / | 10% | / | 5% | / | -10%
COc1ccc(C(=O)NN2C(=O)C3C4C=CC(O4)C3C2=O)cc1 (stereo not given) | 2.9% | 9% | 2% | -6% | -2% | -1% | 21% | 13%
COc1ccc(-c2oc3ccc(-c4cc(OC)c(OC)c(OC)c4)cc3c2C#Cc2ccsc2)cc1 | / | / | 1% | / | -5% | / | -3% | 7%
O=C(NC1CC1)c1cccc(NC(=O)c2cn3ccccc3n2)c1 | / | 5% | -2% | / | 0% | ? | 3% | /
CC(C)Oc1ccc(CNC(=O)Nc2ccc3c(c2)N(C)C(=O)c2ccccc2S3)cc1 | 1.3% | -5%[46.1 µM] | / | 14% | / | ? | ? | /
Cc1ccc2nc(/C(C#N)=C/c3cn[nH]c3-c3ccc(F)cc3)[nH]c2c1 | -5.5% | ? | 1% | ? | 1% | ? | ? | 3%
Cc1ccc(OCc2cc(C(=O)N(C)CCc3nc4ccccc4[nH]3)no2)cc1C | / | / | 2% | / | -7% | / | ? | -20%
O=c1[nH]c2c(c(=O)n1-c1ccccc1)CCO2 | / | -1% | 14% | / | / | ? | 0% | /
Nc1cc2c(cc1C(=O)c1ccccc1F)OCCO2 | / | / | -9% | / | 1% | / | 5% | 5%
COCCCn1c(=O)c2ccccc2n(Cc2ccc(C)cc2)c1=O | / | -14%[46.1 µM] | 3% | / | -3% | 1%[46.1 µM] | -14% | -10%
Cc1ccc(Nc2nc3nonc3[nH]c2=O)cc1 | -7.0% | -13% | -4% | -5% | -14% | -13% | 33%[activator] | -48%
O=C(O)CC(Cc1ccc(Br)cc1)C(=O)Nc1ccccc1 (stereo not given) | / | / | -16% | / | 9% | / | -8% | 12%
Cc1oc(-c2ccc(C(=O)NCc3ccccc3Cl)cc2)nc1CN1CCc2ccccc21 | -4.8% | -26%[46.1 µM] | / | ? | / | / | -12% | /
Cc1ccc(NC(=O)CSc2ncccc2C(=O)Oc2cccc([N+](=O)[O-])c2)cc1Cl | -8.4% | ? | 13% | ? | ? | ? | 12% | -6%
O=C(c1ccco1)N1CCN(C(c2ccc(Cl)cc2)c2nnnn2Cc2ccccc2)CC1 (stereo not given) | -7.9% | -21% | 2% | ? | 18% | -8% | -12% | 6%[9.22 µM]
CC(NS(C)(=O)=O)C(c1cccs1)N1CCN(c2ccccc2)CC1 (stereo not given) | 0.1% | 2% | -5% | -1% | 16% | -5% | / | 4%
CCCc1cc(NCCN(C)C)n2c(nc3ccccc32)c1C#N | / | / | -6% | / | -2% | / | -4% | 6%
O=C(Cc1c(Cl)cccc1Cl)N/N=C/c1cccnc1 | / | -19%[46.1 µM] | 16% | / | 2% | 5%[46.1 µM] | -7% | 3%
CCOc1ccc(-c2cc3c(=O)n(CC(=O)Nc4c(C)cccc4C)ccn3n2)cc1 | 0.6% | 4%[46.1 µM] | / | 2% | / | / | -16% | /
CC(C)c1ccccc1NS(=O)(=O)c1cccs1 | / | 7%[46.1 µM] | 15% | / | -2% | -7%[46.1 µM] | 1% | -1%

Screens from PubChem BioAssay.
